Bioassay records deposited in PubChem BioAssay by Johns Hopkins Ion Channel Center.
KCNQ2 enhance: potentiators of rat KCNQ2 potassium channel; O88943; CHO-K1 KCNQ2, FluxOR thallium flux fluorescence; hits give high values; B-score at 10 µM; actives 0.54% (n = 310,000); AID 2239;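 active = fluorescence ratio B-score at least 3 SD of library B-scores, with initial fluorescence B-score within 3 SD, cut at about 5.3 in these data; same plate scores as AID 2156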;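 note: B-score of peak minus minimum over baseline fluorescence ratio after K+ and Tl+ stimulus; positive B-score means potentiation of KCNQ2 with more thallium influx and brighter signal; only the inactives scoring about 0 or higher are listed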
Target sequence (O88943 whole entry, looked up): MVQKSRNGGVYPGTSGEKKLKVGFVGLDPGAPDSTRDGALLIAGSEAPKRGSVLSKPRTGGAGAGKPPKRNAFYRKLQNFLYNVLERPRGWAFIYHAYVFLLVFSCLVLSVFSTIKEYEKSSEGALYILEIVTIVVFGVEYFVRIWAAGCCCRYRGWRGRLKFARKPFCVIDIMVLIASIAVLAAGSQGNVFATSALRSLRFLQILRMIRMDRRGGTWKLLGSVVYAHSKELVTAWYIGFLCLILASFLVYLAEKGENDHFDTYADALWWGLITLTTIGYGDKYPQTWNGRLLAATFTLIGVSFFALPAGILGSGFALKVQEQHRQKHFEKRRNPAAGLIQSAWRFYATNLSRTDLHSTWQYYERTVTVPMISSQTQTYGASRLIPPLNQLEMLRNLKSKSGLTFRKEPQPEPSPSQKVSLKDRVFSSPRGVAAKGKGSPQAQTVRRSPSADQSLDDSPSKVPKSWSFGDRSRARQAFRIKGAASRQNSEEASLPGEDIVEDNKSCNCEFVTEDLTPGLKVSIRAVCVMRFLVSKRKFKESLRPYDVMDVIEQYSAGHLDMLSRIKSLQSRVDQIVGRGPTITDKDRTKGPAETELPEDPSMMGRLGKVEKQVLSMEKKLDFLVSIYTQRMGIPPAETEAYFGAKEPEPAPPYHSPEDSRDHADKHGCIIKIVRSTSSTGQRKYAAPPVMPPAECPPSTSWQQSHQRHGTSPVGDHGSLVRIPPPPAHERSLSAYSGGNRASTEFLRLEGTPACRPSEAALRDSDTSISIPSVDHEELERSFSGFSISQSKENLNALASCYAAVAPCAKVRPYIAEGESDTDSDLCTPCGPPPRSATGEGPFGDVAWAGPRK
KCNQ2 enhance baseline: recorded beside KCNQ2 enhance, whose call it bears; B-score; compound at 10 µM; measured here: initial fluorescence intensity artifact check;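 brightness before thallium and not channel activity; 0 = typical well and far values either way flag optical interference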
* hit, by the source's call. Only part of the results is shown; rates above refer to the full screens.

Start of the data: the first five compounds, ahead of the listing:
SMILES	KCNQ2 enhance	KCNQ2 enhance baseline
COc1ccc(C2C3=C(NCCN=C3c3ccccc3)C(=O)N2c2ccccc2)c(OC)c1 (stereo unspecified)	2.1	-0.1
NNC(=O)c1cc(C2CC2)nc2ccc(Br)cc12	0.3	-2.1
S=C(N/N=C1\C2CN3CCN(C2)CC1(c1ccccc1)C3)Nc1ccccc1	0.46	0.66
Cc1ccc(CN2CC(C(=O)Nc3ccc(F)c([N+](=O)[O-])c3)CC2=O)cc1 (stereo unspecified)	0.13	-0.21
COC(=O)C1Cc2c([nH]c3ccccc23)C(C)N1 (stereo unspecified)	0.85	0.72

Results, from the first entry:
SMILES	KCNQ2 enhance	KCNQ2 enhance baseline
COc1ccc(C2C3=C(NCCN=C3c3ccccc3)C(=O)N2c2ccccc2)c(OC)c1 (stereo unspecified)	2.1	-0.1
NNC(=O)c1cc(C2CC2)nc2ccc(Br)cc12	0.3	-2.1
S=C(N/N=C1\C2CN3CCN(C2)CC1(c1ccccc1)C3)Nc1ccccc1	0.46	0.66
Cc1ccc(CN2CC(C(=O)Nc3ccc(F)c([N+](=O)[O-])c3)CC2=O)cc1 (stereo unspecified)	0.13	-0.21
COC(=O)C1Cc2c([nH]c3ccccc23)C(C)N1 (stereo unspecified)	0.85	0.72
CN(CC(=O)Nc1cccc2ccccc12)c1ccc(S(=O)(=O)N2CCOCC2)cn1	0.45	0.38
O=C(NCc1csc(-c2cccs2)n1)c1ccsc1	0.29	0
O=C(c1ccc(S(=O)(=O)Cc2ccccc2Cl)c([N+](=O)[O-])c1)N1CCOCC1	1.9	-1.2
COc1ccc(C2CC(c3ccccc3C)n3nc(N)nc3N2)cc1 (stereo unspecified)	1	-0.07
O=C(NNC(=O)c1ccccc1[N+](=O)[O-])c1ccccc1[N+](=O)[O-]	0.33	-0.61
COc1ccccc1C(=O)C1CCCN(Cc2cccc(OCCO)c2)C1 (stereo unspecified)	1	-0.01
COc1cccc(-c2csc(N3CCN(C(=S)Nc4ccccc4OC)CC3)n2)c1	0.47	-0.01
OC(COc1ccc(CN2CCCCO2)cc1)CN1CCCCC1 (stereo unspecified)	0.15	-0.06
O=C(CN(Cc1ccco1)C(=O)CCC(=O)Nc1ccccn1)NCc1ccccc1	0.85	2.5
Cc1noc(/C=C/N(C)C)c1S(=O)(=O)N1CCCC(C(=O)Nc2ccccc2F)C1 (stereo unspecified)	0.6	2
CC1(C)NC(=O)N(CCCSc2ccc(Cl)cc2)C1=O	0.5	0.5
Cc1cc2sc(NC(=O)c3ccco3)nc2cc1Cl	0.17	-4.2
COc1ccc(-c2csc(Nc3ccccn3)n2)cc1	0.65	-2.7
Cc1ccc2[nH]c(=O)c(COC(=O)c3ccccn3)cc2c1	0.91	-1.8
Cc1ccc(N(CC(=O)NC2CCCC2)C(=O)CNC(=O)c2cccs2)cc1C	1.7	0.72
CCCC(=O)Nc1ccc(NC(=S)NC(=O)c2cccs2)cc1	1.3	-2.1
CCN(c1ccccc1)S(=O)(=O)c1cccc(C(=O)OCc2nc3sc(C)c(C)c3c(=O)[nH]2)c1	0.92	1.1
Cc1ccc(C(C)C)cc1OCCN1CCCC1	1.4	0.18
CCOC(=O)c1c(C)[nH]c(N=Nc2cc(C(=O)O)cc(C(=O)O)c2)c1C	1.6	0.21
CCOc1ccc(CCNC(=O)CN2C(=O)NC3(CCc4ccccc43)C2=O)cc1OCC (stereo unspecified)	0.45	0.24
O=S(=O)(NCC(c1ccccc1)N1CCC(O)CC1)c1ccc(Cl)cc1 (stereo unspecified)	1.7	-0.29
N[C@@H](CO)c1nnc([C@H](CCC(=O)O)NC(=O)C2CCNCC2)o1	0.12	0.02
N#Cc1c(NC(=O)CSc2ncnc3sccc23)oc(-c2ccco2)c1-c1ccco1	0.5	-0.13
Cc1cccc(NC(=S)NN2CCN(C)CC2)c1	0.37	-0.27
Cc1ccc(NC(=O)C[n+]2cc(-c3ccccc3)n3c2CCC3)c(C)c1	2	1.4
C/C(=N\N1CCN(c2ccccc2)CC1)c1ccco1	0.99	0.27
CCCCN1C(=O)/C(=C(/C#N)C(=O)N2CCCC2)c2ccccc21	0.24	0.84
Cc1ccccc1CN1C(=O)c2ccccc2Sc2ccc(C(=O)NCCCN3CCOCC3)cc21	0.24	1.8
COCCn1c(SCC(=O)NNC(=O)c2ccccc2)nc2ccccc2c1=O	0.23	-0.57
CCOc1ccc(N(C(C)C(=O)NN=C2CCCCCCC2)S(C)(=O)=O)cc1 (stereo unspecified)	0.28	-0.99
CN1C(=S)SC(C)(C)C1NO (stereo unspecified)	0.15	-0.05
O=C(CP(=O)(c1ccccc1)c1ccccc1)Nn1cnnc1	0.31	-1.9
CCN(CC)S(=O)(=O)c1ccc2c(c1)nc(SCc1nc3ccsc3c(=O)[nH]1)n2CC	1.4	-0.94
COC(=O)COc1ccc2occ(C(C)=O)c2c1	0.9	0.05
CC(C)Oc1ccc(C(=O)Nc2ccc3c(c2)n(C)c(=O)n3C)cc1	1.7	-0.09
O=C(COc1nc2ccccc2nc1N1CCOCC1)NCC(F)(F)F	0.01	-0.54
CC(C)C(C)(C#N)NC(=O)CSc1nncn1-c1ccccc1 (stereo unspecified)	0.12	-2.4
Cn1c(SCC(=O)c2ccccc2)ncc(C(=O)Nc2ccc(F)cc2)c1=O	1.4	-0.39
CNCCC(Oc1ccccc1OC)c1ccccc1 (stereo unspecified)	0.35	1.4
CCOc1ccccc1N/C=C(\C#N)c1nc2ccccc2n1C	0.81	0.01
C=CCn1c(=O)c2ccccc2n2c(SCc3nnc(-c4ccccc4Br)o3)nnc12	0.34	0.1
O=C(NC(=S)Nc1ccc(S(=O)(=O)Nc2nccs2)cc1)c1ccccc1	0.33	0.42
Cc1cccc(NC(=O)c2sc3nc(N4CCOCC4)c4c(c3c2N)CCCC4)c1	0.49	-1.7
CC1(C)C2CC[C@]3(C)C(CC=C4[C@@H]5C[C@@](C)(CO)[C@@H]6C[C@@]5(CC[C@]43C)C(=O)O6)[C@@]2(C)CC[C@@H]1O (stereo partly specified)	0.93	0.2
CCOCCCNC(=O)c1cn(CC)c2ccc(S(=O)(=O)N3CCOCC3)cc2c1=O	0.44	0.04
NCCCC[C@H](N)c1nnc([C@H](CC(=O)O)NC(=O)C2CCNCC2)o1	0.04	2.3
CCCN(CCC)S(=O)(=O)c1ccc(NS(C)(=O)=O)cc1	0.17	-1.1
CCOC(=O)NC(C)N1C(=O)C2C3C=CC(C3)C2C1=O (stereo unspecified)	0.03	0.33
Cc1c(Cl)cccc1NC(=S)N1CCN(Cc2ccccc2)CC1	3	-1.9
CCOc1ccc2nc(S(N)(=O)=O)sc2c1	0.95	-1.1
O=C(Nc1ccon1)c1cc2ccccc2oc1=O	1	-2.4
CN(C(=O)Nc1cnccc1C(F)(F)F)C1CCCCC1	1.4	-1.1
CC(=O)N(C)c1ccc(NS(=O)(=O)Cc2ccccc2)cc1	0.35	-0.19
OCCCNc1c2ccccc2nc2ccccc12	0.47	-0.67
Cc1nc(-c2ccccc2O)n(-c2ccccc2)n1	0.62	-1.6

Ordered by number of heavy atoms (smallest number first): part of the list above
SMILES	KCNQ2 enhance	KCNQ2 enhance baseline
CCOc1ccc2nc(S(N)(=O)=O)sc2c1	0.95	-1.1
OCCCNc1c2ccccc2nc2ccccc12	0.47	-0.67
CCOC(=O)NC(C)N1C(=O)C2C3C=CC(C3)C2C1=O (stereo unspecified)	0.03	0.33
CCCN(CCC)S(=O)(=O)c1ccc(NS(C)(=O)=O)cc1	0.17	-1.1
CCOCCCNC(=O)c1cn(CC)c2ccc(S(=O)(=O)N3CCOCC3)cc2c1=O	0.44	0.04

The list goes on:
SMILES	KCNQ2 enhance	KCNQ2 enhance baseline
CCc1ccccc1NC(=S)N(CCN(C)C)C(C)c1ccccn1 (stereo unspecified)	0.92	0.95
COc1ccccc1/C=C/C(=O)Nc1ccc2c(c1)OCCO2	0.15	-0.1
COc1cc2c(cc1OC)C(c1ccccc1C(F)(F)F)CC(=O)N2 (stereo unspecified)	1.2	-2.3
CCN(CC)S(=O)(=O)c1ccc(-c2cn3ccc(C)cc3n2)cc1	1.8	0.74
COCCNC(=O)NC1(C(F)(F)F)Oc2ccc(Cl)cc2O1 (stereo unspecified)	1.2	0.09
NC(=O)Cn1nc([N+](=O)[O-])nc1Oc1ccccc1C(=O)N1CCOCC1	0.47	0.58
Cc1ccccc1N1C(=O)CSC1=C(C#N)C#N	0.29	0.62
CCN(CC)S(=O)(=O)c1cccc(C(=O)NCC2CCCO2)c1 (stereo unspecified)	0.67	0.77
COC(C[C@H](O)C[C@@H](O)[C@H](C)OCc1ccccc1)OC	0.67	-0.26
COc1ccc(S(=O)(=O)NC2CCCCC2)cc1C(=O)N1CCCCC1	0.26	0.34
CCOC(=O)c1c(P(=O)(N2CCOCC2)N2CCOCC2)noc1N	0.24	0.04
CSc1nsc(/C=C/Nc2ccc(Cl)cc2)c1C#N	1.1	-1.3
COC(=O)CCC(=O)OC1(C)C(=O)C=C2C=C(C3CC3)N(C3CC3)C=C2C1=O (stereo unspecified)	1.2	1.4
C=CCNC(=S)Nc1sc2c(c1C(=O)OCC)CC(C(C)C)OC2 (stereo unspecified)	8.8*	-0.55*
COc1ccc2cc(C(=O)C3CCCN(Cc4cnc(C)s4)C3)ccc2c1 (stereo unspecified)	0.95	0.15
O=C1c2ccccc2C(=O)N1CCOc1ccc(F)cc1	1.5	-0.94
CN(CC(=O)Nc1ccccc1Cl)C(=O)CCc1nc2ccccc2c(=O)[nH]1	0.12	-0.06
COCC(=O)Nc1cc(C)cn(Cc2c(F)cccc2Cl)c1=O	1.2	-0.18
COc1ccc([N+](=O)[O-])cc1NC(=O)C1C2C=CC(C2)C1C(=O)O (stereo unspecified)	2.1	-3.1
c1ccc(CNc2nc(-c3ccccc3)nc3ccccc23)cc1	0.75	0.13
Cc1cc(=O)oc2cc(NC(=S)NNC(=O)c3c(Cl)cnn3C)ccc12	0.08	1.3
Cn1cc(/C=C2\SC(=S)N(N3CCOCC3)C2=O)c2ccccc21	1.3	-0.06
CCOc1ccc(CCNS(=O)(=O)c2cnc[nH]2)cc1OCC	0.04	0.17
Cc1c(CC(=O)NCC(=O)NCC(=O)O)c(=O)oc2c(C)c3oc4c(c3cc12)CCCC4	0.68	-2.2
O=S(=O)(Nc1cccnc1Cl)c1ccc(-c2ccccc2)cc1	1.7	0.69
Cc1cc(-c2c(C)[nH]n(-c3ccc(Cl)cc3)c2=O)n[nH]1	0.11	-3.6
CCN(c1nc(N)c(C(=O)N=C(N)N)nc1Cl)C(C)C	5.3*	-1.1*
O=C(O)CCSc1nnnn1-c1ccccc1	0.41	0.2
O=C(CNC(=O)c1ccco1)NCC(=O)OCc1ccc(Cl)cc1	1.2	-0.26
COCc1nc2ccccc2n1Cc1ccccc1Br	0.17	2.2
Nc1cc(N2CCCCCC2)c2nonc2c1[N+](=O)[O-]	2.7	1.9
CSc1nnc(CCNS(=O)(=O)c2ccc(Br)cc2)n1C	1	1.3
Cc1nnc(SCCCCSc2nnc(C)c(=O)[nH]2)[nH]c1=O	0.4	-0.19
COc1ccc(OCC(=O)N/N=C(\C)c2cccs2)cc1	1.5	0.26
NC(=O)c1cccc(N=Cc2cc(Cl)cc(Cl)c2O)c1	13*	1.9*
Cc1c(Cl)cccc1NC(=S)N(CCN(C)C)C(C)c1ccco1 (stereo unspecified)	2.6	-1.1
COCC(=O)N=Nc1c(O)[nH]c2ccccc12	0.07	0.28
O=C(O)c1ccc(Cn2cnc3sc4c(c3c2=O)CCCC4)cc1	0.82	-0.99
Cc1ccc(-c2nnc3n2CCCCC3)cc1	2.6	-1
CCCCCC(O)CCC(=O)NNC1=CC(=O)CC(C)(C)C1 (stereo unspecified)	0.88	-1.6
Cc1ccc(S(=O)(=O)N2CCC(C(=O)NNC(=O)c3ccc(F)cc3)CC2)cc1	0.18	3.2
CCCS(=O)(=O)Nc1ccc2cn[nH]c2c1	2.3	1.2
Cc1ccc(COn2c(-c3ccc(Cl)cc3)nc3ccc([N+](=O)[O-])cc32)cc1	0.23	-1.8
CC(=O)N1CCc2cc(S(=O)(=O)NCC(=O)NCc3ccccc3Cl)ccc21	0.26	0.54
c1ccc2c3c([nH]c2c1)CCNC3	1.6	-0.53
Cc1cc(NC(=O)CCC(=O)N(c2ccc(F)cc2)C(C(=O)NC2CCCC2)c2ccc(C)o2)no1 (stereo unspecified)	0.53	-1.8
COc1ccc(N2CCN(CC(=O)Nc3cccc(S(=O)(=O)N4CCOCC4)c3)CC2)cc1	0.52	0.48
COc1ccc(-c2csc(-c3ccc(C(=O)O)cc3)n2)cc1	1.3	1.6
COC(=O)C1C(=O)NC(SC)=C(C#N)C1c1ccccc1 (stereo unspecified)	0.68	1.4
COc1ccc(CCNC(C)=O)cc1	0.03	-1.3
CCCn1c(SCC(=O)N2CCCC(C)C2)nnc1-c1cccnc1 (stereo unspecified)	1.1	-0.48
CC1(C)CC2(CC(C)(C)N1)OC(=O)N1CCc3ccccc3C12C (stereo unspecified)	1.3	1.5
O=C(c1ccc2ccccc2n1)N(CCO)Cc1ccccc1	0.14	0.29
COC(=O)Cc1c(C)c2ccc(OCC(=O)N3CCC(C)CC3)c(C)c2oc1=O	2	0.2
COc1cc(CNCC(C)C)cc(Br)c1OCC(=O)Nc1ccccc1	0.08	0.13
CCn1c(C)nc2cc(C#N)ccc21	0.73	-1.4
COc1ccccc1CC(=O)N1CCCc2ccccc21	0.08	-0.81
COc1ccc(S(=O)(=O)N(C)c2ccc(C(=O)N3CCCCC3)cc2)cc1	1.7	2.6
Cc1ccc(S(=O)(=O)N2CCN(C(=O)CCn3cncn3)CC2)cc1C	2	0.24
N#Cc1cc(C(=O)c2cc(Br)ccc2O)cn(C2CC2)c1=O	0.2	0.82
